Rango complex inh = Rango-importin beta binding inhibition; Q14974; Rango CFP/YFP FRET sensor + importin beta, 45 min; Potency, µM (titrated, usually from 92.2 µM), for inactives: at the highest dose inhibition of complex formation; actives 0.031% (n = 340,000); AID 540263; active = rising FRET ratio curve, often small or poorly fitted; inconclusive = mostly compound fluorescence or quenching in the first reads; inactive = flat curves in all reads;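 note: potency is the fitted concentration of half-maximal effect; 0% = DMSO wells and 100% = buffer wells lacking importin beta; nearly all actives have a fitted effect of over 15% in size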
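Inhibition scored from the CFP 486 nm/YFP 530 nm FRET ratio 45 min after adding 0.125 microM importin beta to 50 nM Rango biosensor preincubated 5 min with compound (room temperature, PBS with DTT, Tween-20, BSA). No-importin wells as positive control.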
Rango release inh = prevents RanGTP from dissociating the Rango-importin beta complex | AID 540253 | actives 0.071% (n = 340,000) | Potency, µM (top dose mostly 46.1 µM), without a hit: at the highest dose activity change, negative = inhibition | O95149+P62826 | Biochemical FRET Rango-importin beta, RanGTP-induced dissociation; active means falling FRET ratio curve, often poorly fitted, with flat reads before Ran was added; inconclusive means other falling curves, or compound fluorescence or quenching; inactive means flat or rising ratio curve;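 note: potency is the fitted concentration of half-maximal effect; % of control where 0% means no effect; nearly all actives have a fitted effect of over 45% in size; -100% = wells without RanGTP and RCC1; the record marks most hits as doubtful in a second field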
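Two FRET readings bracket the reaction: one 5 min after compound meets Rango–importin beta, another 45 min after RanGTP-RCC1 (0.6 uM Ran, 0.2 uM RCC1, 2 mM GTP) is added. Only the second defines inhibition.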
GLA inh pH 4.5 = alpha-galactosidase A (human) inhibition, pH 4.5 | activity change, negative = inhibition, % at 105 µM | AID 1467 | 230,000 tested, under 10 active | P06280 | purified enzyme, 4-MU-alpha-Gal fluorescence, pH 4.5; inconclusive = small, poorly fitted or top-dose-only inhibition, or a rising curve; inactive = flat fitted curve, though single readings scatter; no compound was filed as active;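 note: 0% = full activity with enzyme and -100% = basal without enzyme; dose as in the result columns while the protocol names 77 µM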
Target sequence (P06280 whole entry, looked up): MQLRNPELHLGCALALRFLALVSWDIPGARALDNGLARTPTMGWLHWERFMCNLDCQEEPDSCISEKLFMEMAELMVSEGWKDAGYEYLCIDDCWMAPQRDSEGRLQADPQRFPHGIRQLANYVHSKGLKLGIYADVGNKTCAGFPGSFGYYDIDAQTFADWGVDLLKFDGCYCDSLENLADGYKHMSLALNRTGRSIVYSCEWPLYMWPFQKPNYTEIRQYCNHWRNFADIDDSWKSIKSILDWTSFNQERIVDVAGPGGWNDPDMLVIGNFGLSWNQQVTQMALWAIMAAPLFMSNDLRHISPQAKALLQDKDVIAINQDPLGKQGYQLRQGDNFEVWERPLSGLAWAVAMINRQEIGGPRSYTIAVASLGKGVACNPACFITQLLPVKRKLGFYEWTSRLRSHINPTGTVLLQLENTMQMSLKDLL
miR-21 reporter = raises the signal of a miR-21 reporter. 340,000 tested, under 10 active. HeLa miR-21 FLuc reporter, luciferase, 48 h. Potency, µM (titrated, usually from 38.3 µM), without a hit: at the highest dose reporter change, positive = more light. AID 2288; active = well fitted rising curve with a large enough effect; inconclusive = small, poorly fitted or top-dose-only effect; inactive = no such curve, though single readings can be large or run the other way;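 note: % of control where 0% means no effect; miR-21 action dims this reporter so a rising signal means less miR-21 action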
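HeLa miR-21-FLuc reporter line, endogenous miR-21; 2000 cells/well in DMEM/10% FBS; compound titration up to ~40uM final, 48 h, 37 degree Celsius; luciferase detection reagent, 15 min lysis, CCD luminescence.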
* = called active by the depositor; ? = inconclusive; / = not tested or not shown.

Sequence of screens: Rango release inh, Rango complex inh, GLA inh pH 4.5, miR-21 reporter
- C=CCOc1ccc(/C(O)=C2\C(=O)C(=O)N(CCCOC)C2c2ccc(O)c(OC)c2)cc1 (configuration not stated)
    -22%, -2.5%, 2, 1%
- CCOC(=O)c1c(C)[nH]c(NC(=O)Nc2ccc(NC(C)=O)cc2)c1C
    -5%, -1.4%, /, -5%
- O=C(Nc1ccc(Cl)c([N+](=O)[O-])c1)C(NCCCO)c1ccccc1 (configuration not stated)
    -18%, 4.0%, -2, -5%
- CC(=O)Nc1ccc(S(=O)(=O)Nc2nc3ccccc3nc2N2CCc3ccccc3C2)cc1
    0%, -13%, -3, -35%
- O=c1[nH]c(-c2ccccc2)cnc1-c1ccccc1
    ?, -2.2%, /, /
- Cc1cc(C)n2nc(C(=O)OCC(=O)Nc3ccc(C)c(S(=O)(=O)N4CCOCC4)c3)nc2n1
    1%, 3.9%, /, /
- CCOC(=O)C1=C(O)C(=O)N(C2CCCCC2)C1
    18%, -1.0%, 5, -1%
- COc1ccc(CNC(=O)C[C@H]2C(=O)N(CCc3ccccc3)C[C@@H]2Cc2ccccc2)cc1
    2%, -5.2%, /, 20%
- CC(Sc1nc(-c2ccccc2)cc(C(F)(F)F)n1)C(=O)N1CCC(C(N)=O)CC1 (configuration not stated)
    19%, 4.8%, 7, 0%
- Cc1nn(CC(=O)NC2CCC(C)CC2)c(C)c1[N+](=O)[O-] (configuration not stated)
    13%, 3.2%, /, /
- O=C(CNC(=O)c1cccc(Br)c1)N/N=C/c1cccs1
    -16%, -1.7%, /, -3%
- O=C(ONC1=NCCCCC1)c1ccc([N+](=O)[O-])cc1
    8%, 5.4%, 6, -4%
- CCOC(=O)c1oc2ccccc2c1COC(=O)CNC(=O)c1cc(OC)c(OC)c(OC)c1
    9%, 1.2%, /, /
- CCN(CC)CCNC(=O)c1ccc(NC(=O)c2cccc(S(=O)(=O)N(C)C3CCCCC3)c2)cc1
    -9%, 2.2%, /, /
- O=C(Cn1ncc2c1-c1ccccc1OC2)N1CCc2ccccc21
    -4%, -2.1%, 2, -12%
- CCN(CC)S(=O)(=O)c1ccc(N=Nc2cc(C)cc(Br)c2O)cc1
    -5%, -0.1%, /, /
- CCOc1ccc(NC(=O)CN2C(=O)c3ccccc3C2=O)cc1
    1%, 2.0%, /, 4%
- Cc1c(C(=O)NCC2CCCO2)oc2ccc(S(=O)(=O)N3CC(C)CC(C)C3)cc12 (configuration not stated)
    23%, 1.6%, 0, -9%
- Cc1ccc(S(=O)(=O)N(C)C)cc1-n1c(SCC(=O)N(C)C)nc2ccccc2c1=O
    26%, 3.0%, -4, 2%
- O=C(Nc1ccc2c(c1)OCO2)C1CCN(C(=O)c2ccc(Cl)cc2)CC1
    1%, 0.9%, -3, -2%
- CCOC(=O)c1cc(CC)sc1NC(=O)COc1ccc2c(C)cc(=O)oc2c1
    3%, 1.1%, 2, -3%
- CCSc1nnc(NC(=O)C2CCN(S(=O)(=O)c3c(C)c(C)cc(C)c3C)CC2)s1
    /, /, -12, 0%
- Cc1c(-c2ccc(/C=N/NC(=O)C(=O)Nc3ccccc3F)o2)cccc1[N+](=O)[O-]
    -11%, 0.3%, 3, -6%
- C=CCNC(=O)CN(CCc1ccccc1)S(=O)(=O)c1ccccc1
    12%, 0.1%, /, -2%
- O=C(c1ccco1)N(Cc1ccccc1)Cc1ccccn1
    0%, -2.5%, 4, -7%
- Cn1c(SCc2c(F)cccc2Cl)nc2ccccc2c1=O
    4%, 1.1%, /, /
- NNC(=O)c1ccc(COCC(F)(F)F)cc1
    0%, 0.3%, -11, 1%
- O=C(NO)c1ccc(OC(F)F)cc1
    -3%, ?, 11, -4%
- COc1cc(OC)c(C2N(c3cc(C)on3)C(=O)C3CCCN32)cc1OC (configuration not stated)
    0%, 4.8%, 5, 3%
- C=CC[C@@H](CC(=O)N[C@H](CO)Cc1ccccc1)C(=O)NC[C@H](OC(=O)[C@@H](CC=C)Cc1ccc(F)cc1)c1ccccc1
    1%, 3.5%, /, /
- CCCc1ccc(C(=O)CN2C(=O)C(=O)N(C3CCCC3)C2=O)cc1
    2%, -3.0%, /, /
- CC(=O)NCC1CCCN(Cc2cn(-c3ccccc3)nc2-c2ccc3c(c2)OCO3)C1 (configuration not stated)
    -12%, -2.9%, -6, 4%
- Cc1c(-c2csc(N)n2)cnn1C
    20%, 2.4%, 8, -10%
- O=C1CCCc2[nH]c3cccc(/C(=C/c4ccccc4)c4ccccc4)c3c21
    -2%, 0.2%, /, 0%
- O=C(CSc1nnc(COc2ccc(Cl)cc2)o1)N1CCOCC1
    -7%, -0.6%, 13, 0%
- CCOc1ccc(N2C(=O)CC(NCCc3c[nH]c4ccccc34)C2=O)cc1 (configuration not stated)
    -21%, -0.1%, 4, 0%
- CC(=O)Nc1c(-c2ccccc2Cl)c(=O)c2ccccc2n1C
    38%, -3.9%, /, -1%
- CCCCNC(=O)c1cc2c(-c3ccc(Cl)cc3)nn(C)c2s1
    -8%, 0.8%, -2, 2%
- Cc1ccc(CNC(=O)N2CCN(C)CC2)cc1
    7%, 3.3%, 7, -3%
- NC(=O)c1ccsc1NC(=O)COC(=O)Cc1ccccc1Cl
    0%, -1.1%, /, /
- Cc1ccc(NC(=O)c2ccc(-n3cncn3)c([N+](=O)[O-])c2)cc1
    1%, -0.2%, 0, -10%
- Cc1ccc2occ(/C=N/NC(=O)c3ccncc3)c(=O)c2c1
    12%, 2.2%, /, 15%
- Cc1ccc(C(=O)C(C)OC(=O)CNC(=O)c2ccc(Br)o2)cc1 (configuration not stated)
    -22%, -0.1%, /, /
- COc1ccc(NC(=O)CSc2nc(N)cc(=O)[nH]2)cc1S(=O)(=O)N1CCCCC1
    16%, 2.0%, /, /
- S=c1[nH]nc(-c2cc(-c3ccccc3)n[nH]2)n1/N=C/C(Br)=C/c1ccccc1
    16%, 1.2%, -15, ?
- CCN(CC)S(=O)(=O)c1ccc2c(c1)c(C(=O)O)cn2C
    43%, 5.9%, 3, -1%
- O=C(CCl)c1ccc2c(c1)CCN2C(=O)C1CCCCC1
    -20%, 1.6%, -3, 12%
- Cc1ccc(S(=O)(=O)N/N=C/c2cccs2)cc1
    -11%, -2.0%, -6, -7%
- Cc1onc(-c2ccccc2)c1C(=O)N1CCN(Cc2ccccc2)CC1
    32%, -1.3%, /, -3%
- CCCCC(=O)NNC(=O)CC(=O)Nc1ccccc1C(=O)O
    1%, 0.0%, 2, -7%
- Cc1ccc(OCC(=O)OC2CCS(=O)(=O)C2)cc1 (configuration not stated)
    ?, 2.3%, -7, -2%
- Cc1cc(=O)[nH]c(SCC(=O)Nc2ccccc2[N+](=O)[O-])n1
    3%, -3.1%, -12, -7%
- O=C(NCc1ccco1)c1ccc(F)c(S(=O)(=O)N2CCCCC2)c1
    -1%, 2.5%, 1, -8%
- CC(=O)C[C@@H](O)CC(=O)[C@@H]1OC(=O)[C@H](C)CCCCc2ccccc21
    24%, -4.4%, /, /
- O=S(=O)(c1ccc(Sc2nnc3ccccn23)nc1)N1CCOCC1
    -7%, 0.8%, 6, 3%
- CCOC(=O)c1sc2nc(-c3ccccc3)ccc2c1N
    ?, ?, -2, -79%
- CCOc1ccc(C(=O)NCC(C)CN(C)C)cc1OCC (configuration not stated)
    2%, -1.8%, 10, -5%
- Cc1cc(C)cc(CC2CC(=O)N(c3cc(C)ccc3C)C2=O)c1 (configuration not stated)
    9%, 0.0%, /, 3%
- O=C(O)c1cc(N2N=C(C(F)(F)F)/C(=C/C=C/c3ccco3)C2=O)ccc1Cl
    -23%, ?, 3, -1%
- Cc1ccc2c(c1)C1C[N+](C)(CC(=O)Nc3ccccc3Cl)CCC1N2C(=O)c1ccccc1Cl (configuration not stated)
    -5%, 2.7%, /, /

Some of the entries so far, tab-delimited.
compound	Rango release inh	Rango complex inh	GLA inh pH 4.5	miR-21 reporter
Cc1cc(=O)[nH]c(SCC(=O)Nc2ccccc2[N+](=O)[O-])n1	3%	-3.1%	-12	-7%
O=C(NCc1ccco1)c1ccc(F)c(S(=O)(=O)N2CCCCC2)c1	-1%	2.5%	1	-8%
CC(=O)C[C@@H](O)CC(=O)[C@@H]1OC(=O)[C@H](C)CCCCc2ccccc21	24%	-4.4%	/	/
O=S(=O)(c1ccc(Sc2nnc3ccccn23)nc1)N1CCOCC1	-7%	0.8%	6	3%

Later entries
Sequence of screens: Rango release inh, Rango complex inh, GLA inh pH 4.5, miR-21 reporter
- O=C(NC1=NCCS1)NC12CC3CC(CC(C3)C1)C2
    -5%, -1.4%, 5, -16%
- Cc1cccc(C(=O)NC(C)C(c2cccs2)N2CCOCC2)c1 (configuration not stated)
    4%, -1.1%, 7, 8%
- O=C(Nc1nnc(C2=COCCO2)o1)c1ccc(S(=O)(=O)N2CCCCC2)cc1
    5%, -0.3%, -8, 2%
- COC(=O)CN1C(C)=Nc2ccc(C)cc2C1c1ccccc1 (configuration not stated)
    14%, 3.7%, -5, 4%
- CCOC(=O)[C@@H]1[C@H]2COc3ccccc3[C@H]2N2C(=O)N(c3ccc(C(F)(F)F)cc3)C(=O)[C@]12C
    -22%, 1.6%, /, 15%
- O=C(N/N=C/c1cccnc1)c1cccc(N2CCCC2=O)c1
    10%, 9.5%, -9, -45%
- Cc1cnc(C(=O)Nc2cccc3cccnc23)cn1
    -4%, 0.0%, -23, ?
- CCn1c(C)cc(/C=C2/SC(=S)N(CC(=O)O)C2=O)c1C
    ?, ?, -8, 15%
- O=C(NC(=S)Nc1ccc2ncccc2c1)c1ccccc1
    ?, 0.7%, -7, -66%
- O=C(NCCO)c1nc(C(=O)c2ccccc2)c2ccccc2n1
    0%, -0.5%, /, /
- CC(C)c1c(C(=O)N/N=C/c2ccccc2OCc2c(F)cccc2Cl)nnn1-c1nonc1N
    -1%, 2.3%, /, 6%
- Cc1ccc(S(=O)(=O)N2CCN(c3cc4c(cc3[N+](=O)[O-])n(C)c(=O)n4C)CC2)cc1
    5%, -0.4%, 5, 1%
- O=C(/C=C/c1cccs1)NCc1ccccc1
    -7%, -0.6%, 11, -35%
- Cc1cc(C)n(CCNC(=O)c2ccco2)n1
    7%, 5.0%, /, 7%
- CCc1ccccc1NC(=O)CN1C(=O)C2CCCN2c2ncc(Cl)cc21 (configuration not stated)
    ?, ?, -9, -1%
- COc1ccc(N2CCN(C(=O)CSc3nc(C)cs3)CC2)cc1
    -8%, 2.8%, /, /
- CCOc1ccccc1OCCOc1ccc(F)cc1
    -10%, -4.5%, /, -11%
- CC(Nc1nc(-c2ccc(F)cc2)cs1)c1nc2cc(Cl)c(N3CCCCC3)cc2n1CCCO (configuration not stated)
    0%, ?, /, /
- COc1cc2c(C(=O)N3CCN(c4cccc(Cl)c4)CC3)cn(CC(C)C)c(=O)c2cc1OC
    -4%, -1.6%, -1, 13%
- c1cc2c3c(cccc3c1)NC1(CCCC1)N2
    -19%, -4.2%, /, /
- Cc1cc(N2CCCCC2)nc2ccccc12
    5%, -5.8%, 13, -13%
- O=S(=O)(c1ccc(F)cc1F)N1CCCN(c2ccc(C(F)(F)F)cn2)CC1
    -14%, 1.7%, -4, 7%
- O=C(COC(=O)[C@@H]1CCCN1C(=O)c1cccs1)Nc1ccc(Br)cc1
    -2%, 3.1%, /, /
- O=C(N/N=C/c1cc(Br)ccc1O)C(c1ccncc1)N1CCOCC1 (configuration not stated)
    ?, ?, 3, 22%
- CC(NC(=O)Cn1cc2c(n1)CCCCC2)c1ccccc1 (configuration not stated)
    -13%, 1.3%, -5, -9%
- CCOc1ccccc1C(=O)NCCCCCC(=O)O
    -7%, -0.5%, 2, -3%
- Cc1ccc(/C=C/C(=O)Nc2cc(C)on2)cc1
    -1%, 4.9%, 4, -37%
- CCCCCOc1ccc(NC(=O)C(=O)NCCCn2ccnc2)cc1
    0%, 1.2%, 3, 2%
- O=c1[nH]c(CSc2ncnc3sccc23)nc2ccccc12
    -7%, 0.9%, 9, -8%
- COc1ccc(-c2cc(C(=O)NC3CCCC3)no2)cc1OC
    0%, -1.7%, 3, -42%
- O=C(O)c1c(-c2ccccc2)c2oc3ccccc3c2[nH]c1=O
    -26%, ?, 4, -28%
- O=C(CSc1nc2[nH]ncc2c(=O)n1-c1ccccc1)N1CCCc2ccccc21
    -16%, 6.8%, -13, -25%

Only part of the results is shown; the hit share may differ from the screen's.
